Screening data as filed in PubChem.
RanGTP-Imp inh – inhibitors of RanGTP-importin-beta interaction, primary screen, biochemical, FRET, CFP-Ran, YFP-importin-beta, homogeneous; Ran GTPase (GTP-bound) - importin-beta complex; cell-free CFP-Ran/YFP-importin-beta FRET ratio; inhibition, % (concentration not given with the values); 1.1% of 300,000 active;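 active = most replicates above 15%; inconclusive = exactly half above 15%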;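 note: 0% = DMSO wells and 100% = Ran loaded with GDP instead of GTP; wells of about 40 µL received 100 nL stock; the first replicate is given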
A1 inh – caspase 3/7 activation in MEF A1-2A-BIM cells, primary screen, A1 inhibitor project, cell-based, luminescence, HTS. Caspase-Glo 3/7 luminescence, 3 h; percent of clofoctol response, vehicle zero. caspase activation, % (test concentration not listed). 0.066% of 330,000 active;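 active = over half of replicate activation scores above 10%, or exactly half above 10 with the replicate mean above 10; inconclusive = replicate mean below 10 yet half the replicates above 10; inactive = over half of replicates below 10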;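 note: wells of about 30 µL received 50 nL stock; many hits fall short of the cut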
Beta2AR agonist – beta2AR agonists driving receptor internalization, primary screen, cell-based, FAP fluorogen, flow cytometry; Beta-2 adrenergic receptor (Homo sapiens), P07550; Am2.2-beta2AR cells; reference of the scale not given here; response, % (test concentration not listed); 0.43% of 340,000 active; AID 504454, 2011;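 active = response above a set limit, near 3 SD of response in nonfluorescent compounds, cut at about 42% in these data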;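 note: stock transfer was 100 nL into about 11 µL; a reference agonist was the positive control; negative values mostly stem from fluorescent compounds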
Beta cell apopt – inhibitors of cytokine-induced beta cell apoptosis, primary screen, luminescence | INS-1E cytokine-induced death, ATP luminescence, 48 h; percent of positive-control rescue, neutral wells zero | protection from apoptosis, % (no concentration beside the values) | 0.8% of 300,000 active | AID 435005, 2010;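 active = all replicates at 75% or more, or half of them and the mean; inconclusive = half reach 75% but not the mean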;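 note: 0% = cytokine-treated negative control wells and 100% = positive control rescue; higher means more ATP so stronger rescue from cytokine killing; wells of about 40 µL received 100 nL stock; the first replicate is given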
T cruzi inh – inhibitors of intracellular T. cruzi growth, primary screen, luminescence, NIH3T3 host cells; T. cruzi beta-gal in NIH3T3, 90 h; inhibition, % (concentration not given with the values); AID 1885, 2009; 1.4% of 300,000 active;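 active = mean inhibition across valid replicates above about 55%, limit read from the data; inconclusive = mean below that limit but half or more replicates reach it; inactive = mean below it, under half of replicates reach it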;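 note: signal also drops with host cell toxicity which is not excluded here; 0% = plate median of DMSO wells and 100% = zero luminescence signal; higher percent means less beta-gal luminescence so fewer parasites; stock transfer was 50 nL into about 50 µL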
Calb FLC – C. albicans growth inhibition with fluconazole, primary screen, CaCi-2 strain, Alamar Blue fluorescence; C. albicans CaCi-2 (fluconazole-resistant clinical isolate) + fluconazole, 48 h; growth inhibition, % (no concentration beside the values); 0.57% of 300,000 active; AID 1979, 2009;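 active = most replicates above 75%; inconclusive = exactly half above 75%; inactive = most below 75%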;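 note: all wells also contain fluconazole at 8 µg/ml as a sub-toxic cotreatment; 0% = median of DMSO wells and 100% = median of geldanamycin control wells; wells of about 8 µL received 7.5 nL stock; the first replicate is given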
LANA-H2A inh – blockers of LANA interaction with H2A/H2B – biochemical, FP readout, HTS, primary screen; inhibition, % (concentration not given with the values); 0.6% of 320,000 active; Protein LANA1 (Human herpesvirus 8 type P (isolate GK18)), Q9QR71; cell-free LANA-H2A/H2B peptide, fluorescence polarization; in the data active = inhibition mostly above about 10%, no sharp cut-off; inactive = mostly below about 6.7%;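 note: stock transfer was 7.5 nL into about 10 µL; 0% = median of vehicle wells and 100% = median of positive control wells; one replicate is shown; the record names a cut of 25% in any replicate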
Target sequence (Q9QR71 whole entry, looked up): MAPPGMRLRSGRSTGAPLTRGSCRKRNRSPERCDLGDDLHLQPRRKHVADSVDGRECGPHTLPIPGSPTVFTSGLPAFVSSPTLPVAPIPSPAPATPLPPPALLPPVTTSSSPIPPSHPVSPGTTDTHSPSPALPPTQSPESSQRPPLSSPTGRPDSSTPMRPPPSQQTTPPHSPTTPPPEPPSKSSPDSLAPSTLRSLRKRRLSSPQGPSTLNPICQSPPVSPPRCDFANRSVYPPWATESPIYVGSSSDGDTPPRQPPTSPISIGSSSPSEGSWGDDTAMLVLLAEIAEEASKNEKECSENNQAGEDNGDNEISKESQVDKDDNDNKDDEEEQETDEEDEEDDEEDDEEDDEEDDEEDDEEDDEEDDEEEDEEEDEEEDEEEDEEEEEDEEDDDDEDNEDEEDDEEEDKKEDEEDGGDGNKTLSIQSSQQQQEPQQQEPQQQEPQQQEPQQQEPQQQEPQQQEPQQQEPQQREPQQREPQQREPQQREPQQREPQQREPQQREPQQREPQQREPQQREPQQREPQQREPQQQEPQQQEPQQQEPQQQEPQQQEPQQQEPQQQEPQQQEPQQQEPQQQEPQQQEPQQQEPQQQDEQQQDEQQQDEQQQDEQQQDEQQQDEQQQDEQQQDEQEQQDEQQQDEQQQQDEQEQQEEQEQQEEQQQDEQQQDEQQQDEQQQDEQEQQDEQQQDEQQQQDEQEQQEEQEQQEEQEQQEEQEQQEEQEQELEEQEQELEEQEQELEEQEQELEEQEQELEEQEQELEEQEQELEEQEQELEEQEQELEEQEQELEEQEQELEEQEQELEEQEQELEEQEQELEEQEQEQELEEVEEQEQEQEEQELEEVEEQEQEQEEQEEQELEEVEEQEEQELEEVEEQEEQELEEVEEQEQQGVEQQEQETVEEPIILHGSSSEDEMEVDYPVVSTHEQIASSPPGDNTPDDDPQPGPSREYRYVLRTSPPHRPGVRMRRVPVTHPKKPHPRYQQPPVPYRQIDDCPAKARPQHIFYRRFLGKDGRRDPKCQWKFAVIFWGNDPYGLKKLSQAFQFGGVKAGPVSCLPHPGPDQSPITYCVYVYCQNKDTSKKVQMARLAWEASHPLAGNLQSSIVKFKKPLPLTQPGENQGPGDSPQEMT
UCH37 DUB inh – inhibitors of human UCH37 deubiquitinase, primary screen, biochemical, Ub-AMC cleavage, fluorescence. Ubiquitin carboxyl-terminal hydrolase isozyme L5 (Homo sapiens), Q9Y5K5. purified proteasome/UCH37. inhibition, % (no concentration beside the values). 0.33% of 330,000 active. AID 588478, 2011;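 active = mean of two replicates above 20%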;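 note: 0% = compound-free wells with enzyme and 100% = wells lacking proteasome; stock transfer was 100 nL into about 20 µL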
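Material: Human UCH37 enzyme supplied as purified proteasome complex | Schedule: 30 min compound-proteasome preincubation then 25 min substrate reaction, room temperature | Detection: AMC fluorescence from Ub-AMC cleavage, excitation 355 nm, emission 460 nm | Benchmarks: Wells without proteasome as full block, compound-free enzyme plus substrate as uninhibited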
Numbers without * were called inactive; ? = inconclusive; nt = not tested or not shown; + = active, no number.

SMILES	RanGTP-Imp inh	A1 inh	Beta2AR agonist	Beta cell apopt	T cruzi inh	Calb FLC	LANA-H2A inh	UCH37 DUB inh
O=C(CC(CC(=O)c1ccc(Br)cc1)c1cccnc1)c1ccc(Br)cc1	-5.5	-0.1	-10	-5	28	1	2.4	4.3
COc1ccc(C)cc1S(=O)(=O)Nc1ccc(F)c(Cl)c1	0.1	0.3	-7	-15	5	1	-1.6	-0.2
Cn1c(=O)[nH]c(=O)c2c1nc(N1CCN(Cc3ccccc3)CC1)n2CCCc1ccccc1	-3.0	0.6	-8	5	-4	-4	-2.0	0.6
O=C(Nc1ccc2c(c1)OCCO2)c1cc(-c2ccccc2)nc2ccccc12	5.9	-0.1	15	16	6	29	0.7	2.8
COc1cccc(-n2c(COc3ccc(C)cc3)nnc2SCC(=O)O)c1	-4.5	-1.1	-2	-7	-4	-15	-3.0	5.1
COc1ccc(Cl)cc1/C=C(\C#N)C(N)=O	0.3	0.1	20	-4	-8	15	-3.9	-3.4
O=C(CNC(=O)[C@@H]1Cc2ccccc2CN1)NCc1ccco1	2.8	0.4	-1	-3	-3	-2	1.6	1.4
Cc1cccc(NC(=O)CNC(=O)COC(=O)c2ccco2)c1C	nt	2.0	-2	-3	nt	nt	nt	1.8
Cc1cc(C)nc(NS(=O)(=O)c2ccc(N3C(=O)C4CCCCC4C3=O)cc2)n1 (configuration not stated)	4.7	0.1	4	nt	0	-1	2.7	0.7
COc1ccccc1CNC(=O)Cn1cccc1C(=O)c1ccccc1	3.4	2.3	-1	0	-3	9	12	2.7
CCOc1ccc(S(=O)(=O)NC(C)(C)C)cc1-c1nc2c(C(C)(C)C)nn(C)c2c(=O)[nH]1	6.0	-0.6	4	nt	67*	10	5.0	-0.1
Cc1ccc2nc(N(CCN(C)C)C(=O)C3=COCCO3)sc2c1	?	-0.9	-9	-3	53	-1	2.5	5.7
CSc1nc(O)c(C(c2cccc([N+](=O)[O-])c2)c2c(O)nc(SC)[nH]c2=O)c(=O)[nH]1	5.5	-0.2	-2	-9	-16	-9	-0.1	1.5
CC12C=CC3(O1)C(C(=O)N(c1cccnc1)C3C(=O)NC1CCCCC1)C2C(=O)Nc1ccccc1 (configuration not stated)	-1.1	-0.2	12	-7	-4	?	-2.3	1.6
COc1ccccc1-c1cc(-c2ccc(O)cc2)nc(N)c1C#N	1.8	0.5	2	-8	-6	2	3.4	-209
O=C(COc1ccc(Br)cc1)NCCCn1ccnc1	?	-0.3	4	-1	0	nt	-1.2	4.1
O=C(C[C@@H]1C/C=C\C[C@@H](NC(=O)OCC2c3ccccc3-c3ccccc32)C(=O)OCCNC1=O)N[C@@H](CO)Cc1ccccc1	nt	0.6	-6	25	nt	nt	+	4.9
Cc1ccc(NC2CCCN(C(=O)CCc3cn[nH]c3)C2)cc1C (configuration not stated)	0.7	-0.4	-2	-2	6	-1	-0.4	1.2
CC(C)(C)NC(=O)C(=O)NNC(=O)c1cccc(Br)c1	-1.5	0.6	3	-1	-5	-9	-2.4	2.0
Cc1cc(C)c(NC(=O)c2sc3nc(C)[nH]c(=O)c3c2C)c(C)c1	0.8	0.6	nt	8	0	29	2.1	1.9
O=C(CC1(O)C(=O)Nc2cc(Cl)cc(Cl)c21)c1ccncc1 (configuration not stated)	?	0.4	4	-24	9	-28	0.9	4.0
CCOc1ccc(-c2cn3ccccc3n2)cc1	nt	-1.3	-17	-14	nt	-26	-3.3	-93
COc1ccc(C(=O)CSc2[nH]c(=O)cc(C(F)(F)F)c2C#N)cc1	5.3	-0.3	2	3	-1	31	-0.8	2.6
CCOc1ccccc1N=c1oc2cc(O)ccc2cc1C(=O)NCC1CCCO1 (configuration not stated)	180*	0.1	-2	0	3	-4	-7.0	-349
CCc1ncc(C(=O)c2ccc(OC)cc2)n1C	3.5	-0.6	-5	-5	-31	-16	-1.7	1.5

Next compounds follow.
SMILES	RanGTP-Imp inh	A1 inh	Beta2AR agonist	Beta cell apopt	T cruzi inh	Calb FLC	LANA-H2A inh	UCH37 DUB inh
CC(=O)c1cccc(OCC(O)CN2CCN(S(=O)(=O)c3c(F)cccc3F)CC2)c1 (configuration not stated)	-4.6	0.9	-1	-3	12	nt	-6.9	3.6
CC(=O)c1ccc(N2CCN(CC(=O)NC(=O)NCc3ccccc3)CC2)cc1	nt	-0.4	-5	2	nt	nt	5.6	4.1
CC(/C=C/c1ccccc1)=N/NC(=O)C(O)c1ccccc1 (configuration not stated)	-0.1	0.7	3	-1	10	-6	-1.7	nt
CCN(C(=O)Cn1cc(C(=O)C(=O)N2CCOCC2)c2ccccc21)c1ccccc1	-1.2	1.0	6	-20	12	4	4.1	4.8
O=C(NCC(=O)N1CCN(c2ccccc2F)CC1)c1cccs1	3.1	0.1	-2	0	-8	-2	4.3	0.4
CC(C)(Cc1nc2ccccc2[nH]1)C(=O)O	3.6	0.0	-2	-5	-4	-2	-0.8	0.3
O=C(Nc1ccccc1C(=O)N1CCCCC1)c1ccccc1C(F)(F)F	3.9	-0.8	0	-6	6	-16	1.3	0.9
CC(Cc1cccs1)NC(=O)NC1CCCCC1 (configuration not stated)	-1.1	1.2	-4	-2	-5	-13	2.9	5.4
CCN(C(=O)COc1ncnc2scc(-c3ccc(F)cc3)c12)C1CCS(=O)(=O)C1 (configuration not stated)	2.4	-0.9	-2	-7	-13	2	-0.5	0.4
O=C(c1ccco1)N1CCN(c2ncnc3c2cnn3-c2ccccc2)CC1	0.9	-0.4	-1	1	-3	12	0.0	-1.7
NC(=O)/C(=N\O)c1ccccc1	0.6	-0.3	-1	-3	-12	0	1.0	nt
O=C(CNc1ccc2ccccc2c1)N/N=C/c1ccc(OC(=O)/C=C/c2ccco2)cc1	4.6	-0.3	0	4	25	-1	3.5	nt
Cc1onc(-c2ccccc2Cl)c1C(=O)N1C=CC(C(F)(F)F)=NCC1	0.9	?	-1	4	2	2	0.6	nt
Cc1nc2ccc(S(=O)(=O)NCC(=O)NCc3ccc(Cl)cc3)cc2s1	-1.7	-0.1	1	-4	-12	-6	-7.9	1.3
Cc1ccccc1OCC(=O)NCCNC(=O)c1ccccn1	7.8	-0.1	-5	0	9	-12	-6.3	3.1
O=C1OCC/C1=C\OCCCO/C=C1\CCOC1=O	1.2	0.8	-1	-5	-8	-1	-0.7	nt
Cc1cc(C)n(-c2ncccc2[N+](=O)[O-])n1	0.2	0.3	1	4	-12	3	0.5	1.5
COC(=O)c1cc(Br)ccc1N(Cc1cc(OC)cc(OC)c1)S(C)(=O)=O	nt	0.2	-2	-4	nt	nt	-5.1	5.3
COc1ccc(NC(=S)Nc2ccccn2)cc1	-0.5	0.1	-5	4	-23	1	1.7	2.3
COC(=O)CN(c1ccccc1)S(=O)(=O)c1ccccc1	0.6	-0.3	0	-3	3	0	-0.4	5.6
CCN1C(=NCCc2ccc([N+](=O)[O-])cc2)N[C@@H](c2ccccc2)[C@H](C(=O)OC)[C@H]1C	nt	-2.3	6	3	nt	nt	-1.3	1.0
COCCNCCOc1ccccc1-c1ccccc1	?	0.0	0	8	-2	-16	1.6	1.0
Nc1ncnc(NC2CCS(=O)(=O)C2)c1[N+](=O)[O-] (configuration not stated)	1.8	0.3	10	-20	-12	-8	-8.4	7.9
COC(=O)c1nnn(-c2ccc(F)c(Cl)c2)c1C(=O)OC	?	-0.4	4	-1	-2	-23	0.6	2.2
O=C(Nc1ccc2c(c1)CN(Cc1ccco1)CC2)C1CCCO1 (configuration not stated)	0.6	0.9	-8	1	-12	4	2.0	4.0

Next section.
SMILES	RanGTP-Imp inh	A1 inh	Beta2AR agonist	Beta cell apopt	T cruzi inh	Calb FLC	LANA-H2A inh	UCH37 DUB inh
Cc1cc(C(=O)COc2ccc3ccc(=O)oc3c2)c(C)n1C	0.0	0.1	1	-8	-21	11	-0.2	-0.9
CC(Sc1ncc(C(F)(F)F)cc1Cl)C(=O)NCC1CCCO1 (configuration not stated)	nt	-0.3	-4	-6	nt	-7	1.1	3.7
CC(NC(=O)CC1Sc2ccccc2NC1=O)c1ccccc1 (configuration not stated)	-5.6	-0.4	7	-5	2	29	4.4	4.0
CN1C(=O)CSC1=Nc1cccc(Cl)c1	-0.6	-0.1	-1	-4	-9	12	0.0	1.9
CCOC(=O)/C(C#N)=C/c1ccc(SC)cc1	9.6	-0.9	14	-6	-18	-8	-6.3	0.5
COc1ccccc1/C=C1\Oc2cc(OC(=O)N3CCOCC3)ccc2C1=O	-22	0.1	2	-2	10	-12	2.7	-11
CCOC(=O)c1ccc(NC(=O)C2CC(O)CN2S(=O)(=O)c2ccc(C)cc2)cc1 (configuration not stated)	nt	0.1	-9	0	nt	nt	2.3	1.4
CCCCOc1ccc(C2/C(=C(/O)c3ccc4c(c3)CC(C)O4)C(=O)C(=O)N2CCCN2CCOCC2)cc1OC (configuration not stated)	3.0	-0.6	-8	-3	6	-4	-3.1	7.6
O=C(COC(=O)c1cc2c(s1)CCCC2)Nc1ccc(Cl)cn1	8.8	0.3	4	-3	-5	-12	-1.6	1.6

Outcome played no part in choosing rows, and some 4.3% of all compounds hit somewhere here.
